# TsaE inh: displaces an ADP probe from E. coli YjeE (TsaE) | actives 0.05% (n = 71,000) | Potency, µM | AID 605 | purified YjeE, fluorescence polarisation of a bound ADP probe; active = well fitted falling curve; inconclusive = weaker or top-dose-only fall, or a rising curve; inactive = flat or poorly fitted curve;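 also: top concentration of the series not given in the record; excess ADP was the control for the full effect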
#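 Purified YjeE (10 uM) with BODIPY Texas Red-labeled ADP probe (2 uM); compounds pin-transferred, 15 min at room temperature. Binding inhibition read as decreased fluorescence polarization; ADP titration as control.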
# Bst PK mod: alters activity of Bacillus stearothermophilus pyruvate kinase; partly purified Bacillus stearothermophilus pyruvate kinase, luminescence ATP production; ribose 5-phosphate activator present at AC10; Potency, µM; actives 1.2% (n = 51,000); AID 361; in the data active means potency below about 11 µM; inconclusive means mostly about 12 µM to 25 µM; inactive means weaker than that;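 the screen sought inhibitors and activators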;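 also: potency is read from the fitted curve at half-maximal effect; scaled between full activation by ribose 5 phosphate and full inhibition by luteolin; about four in five hits inhibit and the cells do not say which; series up to 57 µM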
# Starred values were filed as active, the others as inactive; i = inactive; nt = not tested or not shown. These rows are one share of the data; count on the stated rates, not on these rows.
No.	structure	TsaE inh	Bst PK mod
1	CCOc1cc(C2C(C#N)=C(N)SC(N)=C2C#N)ccc1OCCN1CCOCC1	i	>57
2	O=C(CN(C(=O)CNS(=O)(=O)c1ccccc1)c1ccc2c(c1)OCCO2)NCc1ccco1	i	>57
3	C[C@@H](C(=O)O)c1ccc(-c2ccccc2)c(F)c1	i	nt
4	CSc1ncccc1C(=O)OCC(=O)NC(=O)NCCC(C)C	i	>57
5	CCCN(CCC)C(=O)COc1cc(=O)n(CC)c2ccccc12	i	nt
6	O=C1CSc2ccccc2N1Cc1ccc(F)cc1	i	>57
7	COc1ccc(-c2nnc(SCc3nnc(-c4ccccc4)o3)n2C)cc1OC	i	>57
8	CCNC(=O)C1CC(=O)N(Cc2ccc(F)cc2)C(=Nc2ccc(OC)cc2)S1 (stereo not given)	i	>57
9	C[C@]12C=CC(=O)C=C1CC[C@@H]1[C@@H]2C(=O)C[C@@]2(C)[C@H]1CC[C@]2(O)C(=O)CO	i	nt
10	O=C(c1ccccc1F)N(Cc1ccccc1)C1CCS(=O)(=O)C1 (stereo not given)	i	>57
11	Cc1cc(=O)oc(C)c1C(=O)NCc1ccc(F)cc1	i	>57
12	COc1cccc2[nH]c(-c3ccccn3)nc12	i	nt
13	CS(=O)(=O)N(CC(=O)NCc1ccccn1)Cc1ccc(Cl)cc1	i	>57
14	CC[C@H](C)C(=O)O[C@@H]1CCC=C2C=C[C@H](C)[C@@H](CC[C@H]3C[C@@H](O)CC(=O)O3)[C@H]21	i	nt
15	Cc1cccc(NC(=O)c2cc(N3CCOCC3)nc3ccccc23)c1	nt	>26
16	Cc1cc(Cl)ccc1OCC(=O)OC(C)C(=O)N(C)C (stereo not given)	nt	>26
17	COc1ccc(S(=O)(=O)N2CCCC(C(=O)NCc3ccccn3)C2)cc1 (stereo not given)	i	>57
18	COc1ccc(OCC(O)Cn2c(=N)n(Cc3ccccc3)c3ccccc32)cc1 (stereo not given)	i	>57
19	COC(=O)c1c(NC(=O)CN2CCCC(C)C2)c2c(C)cccc2n1C (stereo not given)	i	>57
20	CCN(Cc1ccccc1)C(c1cccs1)c1nnnn1C1CCCCC1 (stereo not given)	i	>57
21	CC1(C)Cc2cccc(OCC(=O)N3CCN(S(=O)(=O)c4ccccc4)CC3)c2O1	i	>57
22	CCOc1ccc(C2c3c(oc4ccccc4c3=O)C(=O)N2CCCN2CCOCC2)cc1 (stereo not given)	i	>57
23	COCCN1C(=O)C(=O)/C(=C(/O)c2ccc(OC(C)C)cc2)C1c1cccnc1 (stereo not given)	i	>57
24	CC(=O)N1CCC2(CC1)CCN(c1ccccc1)CC2	i	nt
25	CCOC(=O)COc1nc(C)c(Br)c(OC)n1	i	>57
26	Cc1cc2cc(CN(Cc3ccc4c(c3)OCO4)C(=O)c3ccco3)c(=O)[nH]c2cc1C	i	>57
27	COc1cc2c(cc1OC)-c1nnnn1C(C)(C)C2	i	>57
28	Cc1nnc(SCc2cccc(Oc3ccccc3)c2)n1N	i	>57
29	COc1ccccc1CCn1c(=O)c(-c2cn(C)c3ccccc23)nc2cncnc21	i	nt
30	CCOC(=O)N1CCC(NC(=O)C2CCCCN2S(=O)(=O)c2ccc(F)cc2)CC1 (stereo not given)	i	nt
31	Nn1c(Cc2cccc3ccccc23)nnc1SCC(=O)NC1CCS(=O)(=O)C1 (stereo not given)	i	>57
32	Brc1ccc(OCCOCCN2CCOCC2)cc1	i	nt
33	COc1ccccc1C1CC(=O)NC(C)=C1C(=O)OCC1CCCO1 (stereo not given)	i	>57
34	Cc1ccc(NC(=O)CSc2nnc(-c3ccncc3)n2C)cc1C	i	>57
35	O=C(COc1ccc(S(=O)(=O)N2CCCC2)cc1Cl)N1CCN(c2ccccc2)CC1	i	>57
36	Cc1cc(/N=C/C=C2\N(C)c3ccccc3C2(C)C)n(CCC#N)n1	i	>57
37	COc1cc2c(cc1OC)C(c1ccsc1)CC(=O)N2 (stereo not given)	i	>57
38	COc1ccc(-c2n[nH]c(C)c2-c2cnn(-c3ccccc3)c2)c(O)c1	i	nt
39	CCCSc1nnc(Cn2c(=O)sc3ccccc32)n1-c1ccccc1	i	nt
40	CCCCN1CC(COc2ccccc2)OC1=O (stereo not given)	i	>57
41	O=c1c(-c2ccc(F)cc2)nc2cnc(N3CCOCC3)nc2n1Cc1cccs1	i	nt
42	COc1ccc(CCNC(=O)CSc2cc(=O)[nH]c(N)n2)cc1OC	i	>57
43	CC(C)c1nc2oc3c(NCc4ccccn4)ncnc3c2c2c1COC(C)(C)C2	i	>57
44	COc1ccccc1NC(=O)CCC(=O)Nc1ccccc1OC	i	>57
45	CCc1nc2sc3c(c2c(=O)o1)CCCC3	nt	>26
46	c1ccc(C2CC(c3cccs3)n3nnnc3N2)cc1 (stereo not given)	i	>57
47	CCOC(=O)c1ccccc1NC(=O)CSc1nnc(COc2ccccc2)n1CC	i	>57
48	CN=C(c1ccco1)n1c(=S)nc(-c2ccco2)n(C)c1=S	nt	>26
49	Cc1cc(O)c(C(C)C)cc1NS(=O)(=O)c1ccccc1	i	>57
50	CS(=O)(=O)N1CCN(C(=O)Cc2cccs2)CC1	i	>57
51	COC(=O)c1cc(COc2ccc3oc(C)c(C(=O)OC)c3c2)c(C)o1	i	nt
52	CCc1ccc(-c2nnn(CCC(=O)OC)n2)cc1	i	nt
53	CC(C)CC(NS(=O)(=O)c1ccc2c(c1)oc(=O)n2C)C(=O)NC1CCCc2ccccc21 (stereo not given)	i	nt
54	COc1ccc2[nH]c(=O)c(CN(Cc3cccs3)Cc3nnnn3C(C)(C)C)cc2c1	i	>57
55	Cc1cc(NC(=O)CC2CCCC2)n(-c2nc3ccccc3[nH]2)n1	i	>57
56	O=c1c(F)cn(C2CCCO2)c(=O)n1Cc1ccccc1Cl (stereo not given)	nt	>26
57	c1ccc(-c2nn3c(C4CCCCC4)nnc3s2)cc1	nt	>26
58	Cc1ccc(-c2nc(CS(=O)CC(=O)NCCN3CCCC3)c(C)o2)cc1 (stereo not given)	i	nt
59	CC(=O)NS(=O)(=O)c1ccc(NC(=O)c2ccccc2F)cc1	i	nt
60	N#CCC(=O)Nc1sc2c(c1C(N)=O)CCCC2	i	nt

# Next structures
No.	structure	TsaE inh	Bst PK mod
61	Cc1ccc(Nc2nc(OC(C(F)(F)F)C(F)(F)F)nc(N3CCOCC3)n2)cc1	i	nt
62	Nn1c(SCC(=O)Nc2ccc(F)cc2)nnc1C1CCCCC1	i	>57
63	O=C(NCc1cccc(Cl)c1)c1ccc2c(c1)OCO2	i	i
64	COC(=O)c1c(C)cc(OC(C)=O)c(C)c1OC(C)=O	i	nt
65	CCc1nc(N2CCCC(C)C2)c2oc3ccccc3c2n1 (stereo not given)	i	>57
66	COc1cccc(Oc2nc3ncn(Cc4ccccc4)c3c(=O)n2C)c1	i	>57
67	O=C(c1ccncc1)N1CCC2(CCN(Cc3cc(C(F)(F)F)cc(C(F)(F)F)c3)CC2)CC1	i	nt
68	O=C(N1CCCC1)n1c(Cc2ccccc2)nc2ccccc21	i	>57
69	c1nc(NCC2(N3CCOCC3)CCCCC2)c2ccsc2n1	i	>57
70	COC(=O)[C@@]1(Cc2ccc(OC)cc2)[C@H]2c3cc(C(=O)N4CCCC4)n(Cc4ccc(S(C)(=O)=O)cc4)c3C[C@H]2CN1C(=O)c1ccccc1	i	nt
71	C[C@H](CCC(=O)O)[C@H]1CC[C@@H]2[C@H]3[C@@H](C[C@@H](O)[C@]21C)[C@]1(C)CC[C@H](O)C[C@@H]1C[C@@H]3O	i	nt
72	O=C1CC(Sc2nnc(-c3ccccc3O)o2)C(=O)N1c1ccccc1 (stereo not given)	i	>57
73	COc1ccc(NC(=O)c2cc(OC)c(OC)cc2OC)c(S(=O)(=O)N2CCOCC2)c1	i	>57
74	CCOc1ccccc1NC(=O)CN(c1nccs1)S(=O)(=O)c1ccc(N)cc1	i	>57
75	CC(NCc1ccco1)C(=O)N1CCc2ccccc2C1 (stereo not given)	i	>57
76	CCn1c(SCC(=O)NCc2ccco2)nc2c(c1=O)SC(C)C2 (stereo not given)	i	>57
77	COc1c(F)c(F)c(C(=O)Nc2ccc3oc(-c4ccncc4)nc3c2)c(F)c1F	i	>57
78	CC(=O)NCCOC(=O)Nc1cccnc1	i	nt
79	Cc1ccc(S(=O)(=O)N2CCOCC2)cc1C(=O)NCc1cn2ccsc2n1	i	>57
80	Cc1ccc2nc(C(F)OC(F)(F)F)[nH]c2c1 (stereo not given)	i	>57
81	O=C(Nc1nnc(COc2ccc(F)cc2)s1)c1cccs1	i	>57
82	COc1ccc(C(=O)NCC(c2cccnc2)N2CCN(c3ccccc3OC)CC2)cc1OC (stereo not given)	i	nt
83	O=C(c1ccco1)N1CCN(C(c2ccccc2Cl)c2nnnn2Cc2cccs2)CC1 (stereo not given)	i	>57
84	N[C@@H](Cc1cccnn1)C(=O)O	i	nt
85	Cc1nn(-c2ccccc2)c2sc(C(=O)OCC(=O)N3CCCCC3)cc12	i	>57
86	CCc1nc(SCc2cc(Cl)ccc2OC)n[nH]1	i	i
87	CCN(CC)S(=O)(=O)c1ccc(-c2nnc(SCC(=O)N3CCOCC3)o2)cc1	i	>57
88	Nc1ccc2c(c1)COc1ccccc1O2	i	>57
89	COc1cccc2sc(NC(=O)c3ccc(S(=O)(=O)N4CCOCC4)cc3)nc12	i	>57
90	Cc1ccc(C2C(C(=O)c3cccs3)=C(O)C(=O)N2CCN2CCOCC2)o1 (stereo not given)	i	>57
91	CCCCC(C=O)CC (stereo not given)	i	nt
92	Cc1ccc(-c2nnn(CCC(=O)N3CCCCC3C)n2)cc1 (stereo not given)	i	>57
93	c1ccc(-c2n[nH]c3ccccc23)cc1	i	i
94	c1cnc(N2CCN(Cc3ccc4c(c3)OCO4)CC2)nc1	i	nt
95	CC(=O)NCCOc1ccc(C(=O)O)cc1	i	>57
96	CCC(=O)N1c2ccc(S(=O)(=O)CCC(=O)N3CCN(c4ccccc4)CC3)cc2CC1C (stereo not given)	i	>57
97	COc1cc2c(cc1OC)C(C(=O)O)C(c1ccc(C)o1)N(C)C2=O (stereo not given)	i	>57
98	CCCc1nc(-c2ccccc2O)n(-c2ccccc2)n1	i	>57
99	CC(C)O	i	nt
100	Cc1ccc(OCC(O)CNS(=O)(=O)c2ccccc2C(=O)N2CCCCC2)cc1 (stereo not given)	i	>57
101	O=S(=O)(c1ccccc1)N1CCC[C@@]2(CCN(Cc3cc(C(F)(F)F)cc(C(F)(F)F)c3)C2)C1	i	nt
102	COc1cc(-c2nn3c(-c4cccnc4)nnc3s2)cc(OC)c1OC	nt	>26
103	CCCC1C2CN(C(C)=O)CC=C2C(C#N)=C(N)C1(C#N)C#N (stereo not given)	i	>57
104	O=c1[nH]c(=O)n([C@H]2C[C@H](O)[C@H](CO)O2)cc1/C=C\Br	i	nt
105	CCCN1C(=O)C2(/C(=C(\O)c3ccc4c(c3)OCCO4)C(=O)C(=O)N2CCCOC)c2ccccc21 (stereo not given)	i	>57

# A second format for part of the listing above.
# Values run as follows: TsaE inh | Bst PK mod
3) C[C@@H](C(=O)O)c1ccc(-c2ccccc2)c(F)c1
 : i | nt
80) Cc1ccc2nc(C(F)OC(F)(F)F)[nH]c2c1 (stereo not given)
 : i | >57

# Carrying on:
No.	structure	TsaE inh	Bst PK mod
106	CCCCNC(=O)c1cc(-c2ccc(OC)cc2)on1	i	>57
107	O=C(c1ccco1)N1CCN(C(c2ccccc2)c2nnnn2Cc2cccs2)CC1 (stereo not given)	i	>57
108	COc1ccc(C2C(C(=O)NCc3cccnc3)c3ccccc3C(=O)N2C)cc1OC (stereo not given)	i	>57
109	Nc1nc(SCc2ccc3c(c2)OCCO3)n[nH]1	i	>57
110	COc1cc2cc(C)c(SCC(=O)N3CCOCC3)nc2cc1OC	i	i
111	c1ccc(Nc2nc(-c3ccoc3)nc3ccccc23)cc1	i	nt
112	CCOC(=O)c1sc2ccc(S(=O)(=O)N3CCOCC3)cc2c1N	i	>57
113	COc1cc(SC)ccc1C(=O)Nc1ccc2c(c1)OCCO2	i	nt
114	Cc1cc(C)nc(SCC(=O)Nn2cnnc2)n1	i	>57
115	O=C(O)c1cccc(NC(=O)c2cccc(S(=O)(=O)N3CCCCC3)c2)c1	i	nt
116	O=S(=O)(c1ccccc1)N1CCC(N2CCCCCC2)CC1	nt	>26
117	N#Cc1nc(-c2ccccc2F)oc1NCc1cccc2c1OCO2	i	>57
118	CC(C)N1CC2=C(OC(N)=C(C#N)C2c2cccnc2)/C(=C/c2cccnc2)C1 (stereo not given)	i	>57
119	O=C(O)C1C2C=CC3(CN(C/C=C/c4ccccc4)C(=O)C13)O2 (stereo not given)	i	nt
120	CCN(CC)c1ccc(C2NC(=O)NC(C)=C2C(=O)Nc2ccccc2)cc1 (stereo not given)	i	>57

# An excerpt of these results, with two lines to a compound:
# Order of values – TsaE inh, Bst PK mod
[107] O=C(c1ccco1)N1CCN(C(c2ccccc2)c2nnnn2Cc2cccs2)CC1 (stereo not given)
→ i, >57
[108] COc1ccc(C2C(C(=O)NCc3cccnc3)c3ccccc3C(=O)N2C)cc1OC (stereo not given)
→ i, >57

# Shown field by field: entries from further up
117: N#Cc1nc(-c2ccccc2F)oc1NCc1cccc2c1OCO2
  TsaE inh: i; Bst PK mod: >57
118: CC(C)N1CC2=C(OC(N)=C(C#N)C2c2cccnc2)/C(=C/c2cccnc2)C1 (stereo not given)
  TsaE inh: i; Bst PK mod: >57
119: O=C(O)C1C2C=CC3(CN(C/C=C/c4ccccc4)C(=O)C13)O2 (stereo not given)
  TsaE inh: i; Bst PK mod: nt
120: CCN(CC)c1ccc(C2NC(=O)NC(C)=C2C(=O)Nc2ccccc2)cc1 (stereo not given)
  TsaE inh: i; Bst PK mod: >57
